Compound activity as filed in PubChem.
Anthrax LT inh: inhibitors of anthrax lethal toxin internalization; Cells, anthrax lethal toxin internalization, FRET ratio (460/530); Potency, µM (highest dose often 40 µM), for inactives: top-dose activity change, negative = inhibition, hits mostly inhibitors; 0.67% of 70,000 active; AID 912; active = well fitted falling ratio curve with the 530 nm signal flat; inconclusive = other ratio curves, or a change in one channel alone; inactive = flat curves in the ratio and both channels; the % refers to the ratio; note: % is set by controls: 0 for no effect and ±100 for the full control effect; nearly all actives have a fitted effect of over 50% in size; tested in ME-180 cells; beta-lactamase reporter
SmPrx2 inh: Schistosoma mansoni Prx2 inhibition | 0.07% of 65,000 active | S. mansoni Prx2 activity coupled to TGR/GSH (TGR is thioredoxin glutathione reductase), NADPH fluorescence loss, qHTS; some inactives read as strong as hits | Potency, µM | AID 448; active means full or partial inhibition curve with a strong effect at the top dose; inconclusive means weaker partial or single-point curve; inactive means no accepted curve; note: series up to 57 µM; many of its hits are not listed in these tables
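Coupled assay in which S. mansoni TGR passes NADPH reducing equivalents via glutathione to Prx2, which reduces H2O2. Compounds were preincubated 15 min at room temperature with 25 nM TGR/50 nM Prx2 mix. Kinetic NADPH fluorescence loss (ex 365/em 450 nm) was monitored.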
* = called active by the depositor; ? = inconclusive; . = not tested or not shown; & = joins results of further samples; [ ] = dose if it differs, or a comment. Potency is the fitted concentration of half-maximal effect. The list is partial; the hit share may differ from the screen's.

structure	Anthrax LT inh	SmPrx2 inh
O=C(CSc1nc2sc3c(c2c(=O)n1-c1ccccc1)CCCC3)NCc1ccco1	?	>57
Cc1ccc(NC2=NC(c3ccco3)n3c(nc(C)cc3=O)N2)c(C)c1 (configuration not stated)	6%	>57
COc1ccc(O[C@H]2C=C[C@@H](c3ccccc3)O[C@@H]2CO/N=C\[C@@H](C)[C@H](OCc2ccccc2)C(C)C)cc1	1%[1.6 µM]	.
O=C(CCn1c(=O)oc2ccccc21)N1CCN(c2ccc(F)cc2)CC1	-8%	>57
O=C(NCCO)c1ccc(Cl)c(Cl)c1	-6%	>57
COc1ccc(CCCc2nnc(SCC(=O)Nc3nc(C)cs3)n2C)cc1C	-12%	>57
CCCC(C(=O)OCCN(CC)CC)(c1ccccc1)c1ccccc1	-18%[3.58 µM]	>57&>57
CCOC(=O)c1ccc(Nc2ncnc3c2cnn3C)cc1	.	>57
COc1ccc(-c2nc(-c3cccc(C)c3)no2)cc1OC	-15%	>57
c1ccc(-n2ncc3c(NCc4ccc5c(c4)OCO5)ncnc32)cc1	-8%	>57
Cc1onc(-c2ccccc2Cl)c1C(=O)NCc1ccc(S(N)(=O)=O)cc1	-2%	.
COc1cc(C(=O)O)cc(OC)c1OCc1cc(C(=O)O)oc1C	-3%	.
Cc1cc(C)nc(-n2nc(C)cc2NC(=O)CN2CCCC(C)C2)n1 (configuration not stated)	?	>57
c1ccc(OCCSc2ncnc3nc[nH]c23)cc1	0%	.
O=C(COC(=O)c1ccccc1NC(=O)c1ccco1)Nc1ccc2c(c1)OCO2	-10%	>57
CC1Oc2ccccc2N(Cc2cccnc2)C1=O (configuration not stated)	-4%	>57
O=C(Nc1c2c(nn1-c1ccc(F)cc1)CSC2)c1ccc(S(=O)(=O)N2CCOCC2)cc1	-6%	>57
C[C@@H](Cc1ccc2c(c1)OC(C(=O)O)(C(=O)O)O2)NC[C@H](O)c1cccc(Cl)c1	-2%	>57
O=C(NC12CC3CC(CC(C3)C1)C2)c1cnccn1	.	>57
O=CN1CCN(C(=O)c2ccccc2F)CC1	8%	>57
CCC(=O)c1ccc(N2CCCCCC2)c(F)c1	?	.
Cc1nn(C)c(C)c1S(=O)(=O)N(CC(=O)Nc1ccccn1)c1ccc(C(C)C)cc1	-4%	>57
Cc1noc(-c2ccccc2OC(=O)c2ccccc2)n1	-7%	.
O=C(NCc1cccnc1)c1cnn2ccccc12	0%	>57
CN1CCN(c2ncc3nc(-c4cccc(C#N)c4)c(=O)n(CCC#N)c3n2)CC1	-12%	>57
O=C(CN1CCN(c2ccccn2)CC1)N(c1ccccc1)c1ccc2ccccc2c1	-5%	>57
O=S(=O)(c1cccs1)N1CCN(Cc2ccccc2)CC1	?	>57
COc1ccc(C2CC(c3ccc(Cl)cc3)Nc3nc(NC(=O)c4ccco4)nn32)cc1 (configuration not stated)	0%	>57
Cc1cc(C)n(Cc2ccc(F)cc2)c(=O)c1C#N	-23%	>57
CCC(=O)Nc1cc2nn(-c3ccccc3)nc2cc1Cl	-2%	>57
CCCCC(=O)Nc1ccc(NC(=O)C2CC2)nc1	?	>57
Nc1nc(Cl)nc2c1ncn2[C@@H]1O[C@@H](COP(=O)(O)OP(=O)(O)OP(=O)(O)O)[C@@H](O)[C@H]1O	9%	>57
CCCCOCCCNS(=O)(=O)Cc1ccccc1	2%	>57
COc1ccccc1OCc1nc(C#N)c(N2CC(C)CC(C)C2)o1 (configuration not stated)	-26%	>57
CC(C)C1(C)C(=O)N=C2c3ccccc3C(=O)N21 (configuration not stated)	-20%	>57
CCOC(=O)c1sc(NC(=O)CSc2nnc(-c3ccc(OC)cc3)n2CCOC)nc1C	2%	>57
COc1ccc(CCNC(=O)c2[nH]c(C)c(C(C)=O)c2C)cc1OC	6%	>57
CC(CCN(C)C)OC(=O)c1ccc(C(C)c2ccccc2)o1 (configuration not stated)	?	>57
NS(=O)(=O)c1cc(C(=O)O)c(Cl)c([N+](=O)[O-])c1Cl	-8%[8 µM]	>57
CCN(C(=O)Cc1cccs1)c1nnc(-c2cccnc2)s1	-3%	>57
O=C(NCCN1C(=O)CSC1=O)C1CC(=O)N(c2ccccc2)C1 (configuration not stated)	11%	>57
O=C1c2oc3ccccc3c(=O)c2C(c2ccc(Br)cc2)N1c1ncccn1 (configuration not stated)	-4%	>57
CCSCc1nnc(SCC(=O)c2ccc(OC)cc2)n1C	.	>57
N#Cc1nc(N2CCCCC2)nc(N2CCOCC2)n1	5%	>57
CCC(C)NC(=O)CSC1=Nc2ccccc2C2=NC(CC(=O)NCc3ccc(F)cc3)C(=O)N12 (configuration not stated)	-5%	>57
CSc1nnc2c(n1)[nH]c1c(C)cccc12	1%	.
CCCCn1cnc2sc3c(c2c1=N)CCCC3	-12%	.
CC(=O)C(Sc1nc(-c2ccco2)nc2c1c(=O)n(C)c(=O)n2C)C(=O)N(C)C (configuration not stated)	12%	>57
CCOC(=O)c1ccccc1NC(=O)Cn1cnc2c1c(=O)n(C)c(=O)n2C	5%	>57
O=C(Cn1cnc2c(nnn2Cc2ccc(F)cc2)c1=O)N1CCN(c2ccccc2)CC1	-15%	>57
COc1ccccc1CN(Cc1cc2cc(C)cc(C)c2[nH]c1=O)Cc1nnnn1CC1CCCO1 (configuration not stated)	-4%	>57
COc1ccccc1CNS(=O)(=O)c1cccc(S(=O)(=O)N2CCOCC2)c1	-2%	>57
COc1cccc(C2c3c(oc4ccc(Cl)cc4c3=O)C(=O)N2c2cc(C)on2)c1OC (configuration not stated)	-10%	>57
Cc1c(/C(O)=C2/C(=O)C(=O)N(CCN3CCOCC3)C2c2ccco2)cnn1-c1ccccc1 (configuration not stated)	3%	>57
O=C1OCc2ccc(NC(=O)C3CCCCC3)cc21	-15%	>57
O=C(NC(Cc1ccccc1)C(=O)O)c1ccccc1 (configuration not stated)	-6%	>57
O=C1CCCCCN1CP(=O)(O)CCc1ccccc1	0%	.
S=c1[nH]c2ncccc2o1	?	>57
CCOC(=O)c1c(C)n(CCN2CCN(C)CC2)c2ccc(OC)cc12	-2%	>57
CCOC(=O)C1=C(N)Oc2cc(C)oc(=O)c2C12C(=O)N1c3c(cccc32)C(C)=CC1(C)C (configuration not stated)	0%	.

The listing continues:
SMILES,Anthrax LT inh,SmPrx2 inh
CCCCN(C)C(=O)c1cn(C)c2ccc(S(=O)(=O)N(C)C)cc2c1=O,12%,>57
CCC(C)NC(=O)CCS(=O)(=O)c1ccc2c(c1)n(C)c(=O)c(=O)n2C (configuration not stated),-8%,>57
Cn1c(=O)c2c(nc(Oc3ccccn3)n2C)n(C)c1=O,1%,>57
CCN=C1SC(C(=O)Nc2cccc(C(=O)O)c2)CC(=O)N1CC (configuration not stated),-15%,>57
Cc1sc(CO)c(Sc2ccccc2)c1C(=O)O,-5%,>57
CC(=O)N1CCCc2cc(S(=O)(=O)N3CCN(c4ccccn4)CC3)ccc21,-13%,>57
O=C1NCC(CN(c2ccccc2)c2ccccc2)O1 (configuration not stated),-9%,>57
CCCNC(=O)Cc1ncn[nH]1,-5%,>57
CNc1ccc([N+](=O)[O-])cc1,2%,.
O=C(O)C(O)(c1ccc(-c2ccccc2)cc1)c1ccc(-c2ccccc2)cc1,?,>57
COC(F)(C(=O)Nc1ccc2c(c1)C(=O)NC2=O)C(F)(F)F (configuration not stated),3%,>57
COc1ncc2nc(C)c(=O)n(CCC#N)c2n1,-7%,>57
COc1cc(NC(=O)Nc2ccccc2)c(OC)cc1NC(=O)CN1CCCCC1,?,>57
CCC(=O)Nc1ccc(-c2nnc(SCC(=O)Nc3nccs3)n2C)cc1,13%,>57
COc1ccccc1Nc1nc(C)cc(=O)[nH]1,2%,>57
Cc1nnc(S(=O)(=O)c2ccc(N=Nc3c(N)nc(N)nc3N)cc2)s1,?,>57
COc1ccc(CNC(=O)Cn2nc(-c3ccc4c(c3)OCCO4)ccc2=O)cc1,8%,>57
O=C(O)CCc1ccc(-c2ccccc2)[nH]1,6%[8 µM],>57
O=C(C1=C(O)C(=O)N(c2ncccn2)C1c1cccs1)c1ccco1 (configuration not stated),?,.
CCC1Oc2ccccc2N(CC(=O)NCCC2=CCCCC2)C1=O (configuration not stated),-20%,>57
COC(=O)[C@H](Cc1ccccc1)NC(=O)NCC1CCCO1 (some centres not stated),?,>57
CN1CCc2c(sc3c2C(=O)NC(c2ccccn2)N3)C1 (configuration not stated),?,.
O=C(CN1CCOCC1)NC1CC2CCC1C2 (configuration not stated),2%,>57
Cc1cc(Cl)ccc1Nc1sc(C(=O)c2cc3cc(Cl)ccc3o2)c(N)c1C#N,?,>57
CCC/C=C(\CCC)C(NS(=O)(=O)c1ccc(-c2ccccc2)cc1)c1ccc(C(=O)OC)cc1 (configuration not stated),-29%,>57
CCNc1ncc2nc(-c3cccs3)c(=O)n(Cc3cccc(OC)c3)c2n1,?,>57
CC(=O)Nc1ccc(S(=O)(=O)N2CCC(c3nc4ccccc4[nH]3)CC2)cc1,6%,>57
Cc1cc(=O)oc2cc(OCC(=O)OCC(=O)N3CCc4ccccc43)ccc12,-2%,>57
CCC1CCCCN1C(=O)COC(=O)c1ccc(S(=O)(=O)N2CCOCC2)cc1 (configuration not stated),6%,>57
Cc1ccc(S(=O)(=O)Nc2ccc(S(=O)(=O)N3CCCC3)cc2)cc1,-12%,>57
COc1cc(Cl)c(C)cc1NC(=O)CSc1nnc(-c2ccccn2)n1Cc1ccco1,?,>57
CCn1c(CNC(=O)c2cccc(C)c2)nc2ccccc21,-1%,>57
O=C(Nc1nc(-c2cccs2)cs1)c1ccc(S(=O)(=O)N2CCCC2)cc1,?,>57
COc1cccc([C@@H]2Oc3ccc(OC)cc3/C(=N/O[C@@H](C)CN3CCCc4nc(C)c(C)cc43)[C@@H]2O)c1,2%[1.6 µM],.
Cc1ccc(-c2noc(CSc3nnnn3-c3ccccc3)n2)cc1,?,.
CC1CCCCC1NC(=O)CCCc1nc2ccccc2c(=O)[nH]1 (configuration not stated),11%,>57
CCCN1Cc2cccc(C(=O)Nc3cc(OC)cc(OC)c3)c2C1=O,26%,>57
CCCCNC(=O)CS(=O)Cc1nc(-c2cccc(Cl)c2)oc1C (configuration not stated),5%,>57
NC(=O)C1(N2CCCCC2)CCN(C(=O)c2ccc(-n3cnnn3)cc2)CC1,-8%,>57
O=C(NCc1cccs1)c1nc2c(nnn2Cc2ccc(F)cc2)c(=O)[nH]1,-27%,>57
O=C(O)C1CC=CCC1C(=O)Nc1ccccc1Cl (configuration not stated),0%,>57
CC(=O)c1ccc(Cc2cnc(N)s2)cc1,14%,>57
COc1ccccc1NC(=O)C1CCCN1C(=O)NCc1ccccc1 (configuration not stated),-3%,>57
CCCCSc1nnc(-c2ccc(C)cc2)o1,6%,>57
CCOC(=O)N1CCC(N(C(=O)Nc2ccc(CC)cc2)C(C)CC)CC1 (configuration not stated),-4%,>57
CCCCn1cnc2c(c(CC#N)nn2-c2ccccc2)c1=N,-4%[8 µM],>57
O=C(CCc1nc2ccccc2s1)N1CCN(S(=O)(=O)c2cccs2)CC1,-15%,>57
CCOC(NC(=O)c1ccccc1)C(NC(=O)c1ccccc1)OCC (configuration not stated),-8%,>57
COc1ccc2c(CC(=O)NCc3ccc4c(c3)OCO4)coc2c1,-8%,>57
Cc1cc(C(=O)COc2nncc3ccccc23)c(C)n1C,12%,>57

Further compounds follow:
SMILES,Anthrax LT inh,SmPrx2 inh
CC(O)C(=O)O (configuration not stated),-8%,.
c1ccc2[nH]c(SCc3cscn3)nc2c1,4%,>57
Cc1cc(N2CCN(C)CC2)nc2ccc(NC(=O)CCC(=O)NCCC3=CCCCC3)cc12,14%,>57
O=[N+]([O-])c1ccc(C2=Nn3c(nnc3-c3ccc(Cl)cc3)SC2)o1,?,>11
Cc1ccc(N2C(N)=C(C#N)C(c3cccnc3)C3=C2CC(C)(C)CC3=O)cc1 (configuration not stated),?,>57
CN(C)C(=O)c1ccc(-c2cncnc2NCc2cccnc2)cc1,1%,>57
CCC1CCCCN1CCCNC(=O)CNC(=O)Cn1ccc2ccccc2c1=O (configuration not stated),15%,>57

Laid out differently: results already given.
Sequence of screens – Anthrax LT inh | SmPrx2 inh
- CCC(=O)c1ccc(N2CCCCCC2)c(F)c1
 : ? | .
- Cc1nn(C)c(C)c1S(=O)(=O)N(CC(=O)Nc1ccccn1)c1ccc(C(C)C)cc1
 : -4% | >57
- Cc1noc(-c2ccccc2OC(=O)c2ccccc2)n1
 : -7% | .

For reference, part of the list above:
SMILES,Anthrax LT inh,SmPrx2 inh
CC(O)C(=O)O (configuration not stated),-8%,.
c1ccc2[nH]c(SCc3cscn3)nc2c1,4%,>57
Cc1cc(N2CCN(C)CC2)nc2ccc(NC(=O)CCC(=O)NCCC3=CCCCC3)cc12,14%,>57
O=[N+]([O-])c1ccc(C2=Nn3c(nnc3-c3ccc(Cl)cc3)SC2)o1,?,>11
